Compound activity from PubChem.
HSV augment: HSV replication enhancement. HSV replication augmentation in cells, fold increase. maximum fold increase. actives 0.005% (n = 220,000). AID 1956;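 active means peak rise of 1.5-fold or more in the series; inconclusive means self-fluorescent or not available for retest; tested in PC3 cells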;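 further: first round at 10 µM; read as green reporter fluorescence; hits show the peak of a series up to 25 µM; 1 = signal of infected wells without compound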
GALR2 agonist: GALR2 (human) receptor agonism. activation, %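 (tested at 5 µM)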. actives 0.48% (n = 140,000). GALR2-expressing cells, agonist activation read-out. AID 803. O43603;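 active means above mean plus 3 SD of all compounds, about 5% in these data, not always enough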;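 further: 0% = vehicle buffer wells and 100% = reference agonist at full effect; tested in CHO reporter cells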
Target sequence (O43603 whole entry, looked up): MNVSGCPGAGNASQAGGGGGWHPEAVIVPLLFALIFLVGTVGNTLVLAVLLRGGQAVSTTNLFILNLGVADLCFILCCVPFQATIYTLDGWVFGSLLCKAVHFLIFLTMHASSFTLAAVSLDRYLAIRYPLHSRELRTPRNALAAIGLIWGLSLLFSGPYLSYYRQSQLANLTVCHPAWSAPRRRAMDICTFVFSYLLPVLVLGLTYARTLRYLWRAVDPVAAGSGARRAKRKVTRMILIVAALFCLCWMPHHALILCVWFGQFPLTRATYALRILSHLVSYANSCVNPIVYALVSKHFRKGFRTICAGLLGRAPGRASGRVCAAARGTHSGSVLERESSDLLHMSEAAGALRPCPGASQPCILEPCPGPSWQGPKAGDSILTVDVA
Insulin prom inh: TRM-6 insulin promoter activity inhibition; inhibition, % at 2 µM; actives 0.9% (n = 130,000); TRM-6 cells (human fetal islet line), insulin promoter-eGFP reporter, imaging; reporter expression induced with tamoxifen; AID 1273;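 active means inhibition above the mean plus 3 SD, with well images judged a real hit on visual review, cut at about 60% in these data, passing the limit was not always enough; inconclusive means inhibition over the cutoff but images rejected on review; inactive means inhibition not above the cutoff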
PKD1 kinase inh: blocks activity of human protein kinase D1; Q15139; PKD1 kinase fluorescence polarization assay; inhibition, %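 (about 10 µM by stock and volumes)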; actives 0.056% (n = 200,000);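 active means inhibition of 50% or more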;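 further: controls were vehicle for no effect and a reference inhibitor for full effect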
RGS16-Gao: RGS16-Galphao interaction regulator (human); O15492+P09471; bead-based flow cytometry RGS16-Galphao binding, fluorescence; actives lie on both sides; binding response (% of control), % at 10 µM; actives 0.38% (n = 220,000);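 active means below 25% or above 175%, edge rows of some plates excepted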;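 further: Galphao activated by GDP with aluminum fluoride before binding; 100% = wells without compound and 0% = beads without RGS; some results beyond the cut were filed as inactive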
Target sequence (O15492 whole entry, looked up): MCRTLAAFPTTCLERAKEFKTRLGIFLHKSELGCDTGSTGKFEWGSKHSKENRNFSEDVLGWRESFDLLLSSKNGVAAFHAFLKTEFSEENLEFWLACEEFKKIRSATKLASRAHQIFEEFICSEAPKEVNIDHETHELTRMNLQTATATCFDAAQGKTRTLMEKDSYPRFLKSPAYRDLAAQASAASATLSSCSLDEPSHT
Target sequence (P09471 whole entry, looked up): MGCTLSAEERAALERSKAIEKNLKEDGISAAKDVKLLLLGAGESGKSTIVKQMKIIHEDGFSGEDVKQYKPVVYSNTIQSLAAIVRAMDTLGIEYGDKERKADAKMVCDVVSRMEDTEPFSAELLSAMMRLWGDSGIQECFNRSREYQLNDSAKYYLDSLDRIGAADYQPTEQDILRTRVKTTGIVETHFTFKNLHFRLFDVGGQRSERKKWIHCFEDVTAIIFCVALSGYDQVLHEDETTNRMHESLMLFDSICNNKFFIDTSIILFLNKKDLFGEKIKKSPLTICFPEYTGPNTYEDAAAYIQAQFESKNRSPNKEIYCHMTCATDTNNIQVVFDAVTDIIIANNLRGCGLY
Insulin prom inh cell count: also measured in Insulin prom inh; calls as there; normalized cell count, %; measured here: cell count, toxicity; reference of the scale not given here;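 cells exposed to compound for 48 h; stained nuclei by imaging scaled within each plate; lower means fewer cells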
HSV augment primary fold: second read-out of HSV augment, no call of its own (marks repeat the call); fold increase; compound at 10 µM; measured here: primary screen fold increase 10 uM; tested in PC3 cells;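 GFP signal in the first replicate; 1 = infected wells without compound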
Starred values were filed as active, the others as inactive; i = inactive; ? = inconclusive; · = no result given. No enrichment for hits; any-hit rate near 1.3%.

The opening six entries (preview)
SMILES	HSV augment	HSV augment primary fold	GALR2 agonist	Insulin prom inh	Insulin prom inh cell count	PKD1 kinase inh	RGS16-Gao
COc1ccc2c(c1)C=C(CN1CCN(C3CCCC3)C(CCO)C1)CO2 (centres undefined)	i	0.96	·	·	·	1	100
COc1cccc(OCC(=O)Nc2cc(Cl)ccc2Oc2ccccc2)c1	i	0.56	1.5	-32	112	-5	107
CC(C)Cn1c(-c2ccc(Br)cc2)c[nH]c1=S	i	0.98	·	-25	74	5	33
CC(C)CC(=O)Nc1cccc(NC(=O)CC(C)C)n1	i	1.1	-2.4	54	85	-11	106
C=C(C)COc1ccc(-c2nc(N)nc(C)c2-c2ccc(OC)cc2)c(O)c1	i	0.94	-1.1	-14	86	-9	62
CC(CNCC1CCCO1)COc1cccc2ccccc12 (centres undefined)	i	0.92	-0.2	-59	8	-2	i

All compounds of this part (from the top)
SMILES	HSV augment	HSV augment primary fold	GALR2 agonist	Insulin prom inh	Insulin prom inh cell count	PKD1 kinase inh	RGS16-Gao
COc1ccc2c(c1)C=C(CN1CCN(C3CCCC3)C(CCO)C1)CO2 (centres undefined)	i	0.96	·	·	·	1	100
COc1cccc(OCC(=O)Nc2cc(Cl)ccc2Oc2ccccc2)c1	i	0.56	1.5	-32	112	-5	107
CC(C)Cn1c(-c2ccc(Br)cc2)c[nH]c1=S	i	0.98	·	-25	74	5	33
CC(C)CC(=O)Nc1cccc(NC(=O)CC(C)C)n1	i	1.1	-2.4	54	85	-11	106
C=C(C)COc1ccc(-c2nc(N)nc(C)c2-c2ccc(OC)cc2)c(O)c1	i	0.94	-1.1	-14	86	-9	62
CC(CNCC1CCCO1)COc1cccc2ccccc12 (centres undefined)	i	0.92	-0.2	-59	8	-2	i
O=C(Nc1ccc(Oc2ccccc2)cc1)C1CC1	i	1	·	-23	102	-4	100
COc1ccc(-n2c(N)c(C(=O)NCc3ccco3)c3nc4ccccc4nc32)c(OC)c1	i	0.98	4.1	0	125	-11	94
O=C(Nc1ccc(N2CCOCC2)c(Cl)c1)c1ccc(Br)o1	i	0.89	-1.6	-481	49	-2	107
O=C(COc1ccccc1)NCC(=O)N/N=C/C=C/c1ccccc1	i	0.84	-0.1	·	·	-8	100
N#Cc1nc(COc2ccc(F)cc2)oc1NCCCn1ccnc1	i	1.1	-0.7	·	·	2	92
c1ccc(-c2c[n+]3c(n2-c2ccccc2)CCC3)cc1	i	1	·	·	·	·	95
CCOC(=O)c1cnc(SC)nc1N	i	1.2	0.1	-11	96	-3	104
C=CCn1nc([N+](=O)[O-])nc1Sc1cccc2cccnc12	i	0.49	-1.4	30	102	7	108
CCOC(=O)c1cc(OC(=O)c2ccccc2Br)n(-c2ccccc2)n1	i	0.93	-1.9	·	·	-5	97
O=C(COC(=O)c1ccc2c(c1)OCCO2)Nc1cc(S(=O)(=O)N2CCOCC2)ccc1Cl	i	1	·	·	·	-9	99
CCOC(=O)c1cc2sccc2n1CC(=O)N1CCCC1	i	0.93	-2.6	·	·	-9	121
O=C(N1CCCCC1)N1CCN(C(c2ccccc2)c2ccccc2)CC1	i	1.1	-1.5	·	·	0	108
CC[C@H]1CN2CCc3cc(OC)c(OC)cc3[C@@H]2C[C@@H]1C[C@H]1NCCc2cc(OC)c(OC)cc21	i	0.48	-2.6	-200	17	-5	100
C=Cn1cc[n+](CC(=O)C(C)(C)C)c1	i	1	-0.8	-12	129	12	97
O=C(c1c(O)c2ccccc2oc1=O)C1CCCCC1	i	0.72	-1.6	22	101	-9	105
CCOC(=O)Cc1nn(CCc2ccccn2)c(=O)c2ccccc12	i	0.97	-0.4	0	160	-16	99
O=C(NC1CCCc2ccccc21)c1cccc(S(=O)(=O)N2CCOCC2)c1 (centres undefined)	i	0.91	·	-47	158	-2	96
Cc1ccc(O)c(C2=Nc3ccccc3N=C(c3cccs3)C2)c1	i	0.93	0.5	·	·	3	101
CCC(Sc1n[nH]c(=O)[nH]c1=O)C(=O)OCc1ccccc1 (centres undefined)	i	0.94	0.5	·	·	0	102
CCc1nnc(NS(=O)(=O)c2ccc(NC(=S)NC(=O)/C=C/c3ccc(OC)cc3)cc2)s1	i	0.96	-0.8	·	·	6	108
CCOC(=O)N1CCN(c2ccccc2OC)CC1	i	0.82	·	·	·	·	97
O=C(CCc1nnc(C2CCCCC2)o1)N1CCCCC1CCn1cccn1 (centres undefined)	i	0.93	·	4	74	-2	109
COc1cc(-c2cc(C(=O)N3CCN(c4ccccn4)CC3)c3ccccc3n2)cc(OC)c1OC	i	0.72	-1.4	·	·	-2	22
CC(c1n[nH]c(=S)n1Cc1ccccc1)N(C)C (centres undefined)	i	0.78	·	-15	130	-5	102
COc1ccc(OC)c(NC(=O)C(=S)NC2CCCCC2)c1	i	1	·	-71	112	-5	99
CCOc1ccccc1N1CCN(Cc2cccc(OC)c2OC)CC1	i	0.86	-0.4	·	·	-11	119
CCOC(=O)C1(C(F)(F)F)N=C(C(F)(F)F)Nc2ccccc21 (centres undefined)	i	1	-2.3	·	·	-3	101
CCCC(C(=O)O)N1C(=O)/C(=C/c2cccn2C)SC1=S (centres undefined)	?	·	0.9	·	·	-1	97
Cc1cc(SCC(=O)Nc2cccc(S(N)(=O)=O)c2)c(C)cc1Br	i	1.1	·	·	·	3	95
CCCN(CCC)c1ncnc2nc[nH]c12	i	0.62	-2.0	·	·	-5	101
COc1cc(NC(=S)NCCc2c[nH]c3ccccc23)c(OC)cc1Cl	i	0.85	0.3	·	·	7	100
C/C(Cn1cnc([N+](=O)[O-])n1)=N/NC(=O)COc1c(Cl)cc(Cl)cc1Cl	i	0.71	0.1	-17	112	-10	39
COC(=O)c1cn(N(C)c2ncc(C(F)(F)F)cc2Cl)c(=O)c2ccccc12	i	1	-0.8	17	93	-3	113
O=c1cc(CCl)nc2scc(-c3ccccc3)n12	i	1	·	·	·	·	95
Cc1ccc(F)c(NC(=O)CCc2ccccc2)c1	i	1	-1.6	-79	194	1	98
CC(C(=O)Nc1ccccc1-c1ccccc1)N(C)Cc1nc2ccccc2c(=O)[nH]1 (centres undefined)	i	0.93	·	·	·	2	102
CCN(CC)C(=N)/C(C#N)=N/Nc1ccc(C)cc1	i	1	·	·	·	·	91
CCCCCCOc1cccc(N)c1	i	1	0.1	-7	153	-11	99
Nc1ncnc(Nc2c(F)cccc2F)n1	i	1.1	·	·	·	·	101

Part of the list above, with values under each structure:
Below each compound – HSV augment | HSV augment primary fold | GALR2 agonist | Insulin prom inh | Insulin prom inh cell count | PKD1 kinase inh | RGS16-Gao
> CC(C(=O)Nc1ccccc1-c1ccccc1)N(C)Cc1nc2ccccc2c(=O)[nH]1 (centres undefined)
→ i | 0.93 | · | · | · | 2 | 102
> CCN(CC)C(=N)/C(C#N)=N/Nc1ccc(C)cc1
→ i | 1 | · | · | · | · | 91

The results go on:
SMILES	HSV augment	HSV augment primary fold	GALR2 agonist	Insulin prom inh	Insulin prom inh cell count	PKD1 kinase inh	RGS16-Gao
CCOC(=O)N1CCN(Cc2cc(Cl)c3cccnc3c2O)CC1	i	0.79	·	·	·	4	101
C#CCOCCOCCOCCNc1nc(N2CCN(C(=O)[C@H](CCCCN)n3cc([C@@H](N)C(C)CC)nn3)CC2)nc(N2CCN(C(=O)[C@H](CCCCN)n3cc([C@@H](N)CC(C)C)nn3)CC2)n1 (some centres undefined)	i	0.88	·	·	·	0	97
NC(=S)N/N=C/c1cn(CCC(=O)O)nc1-c1cccc(Br)c1	i	0.98	·	·	·	·	99
O=C(NCCCN1CCN(CCCNC(=O)c2cc([N+](=O)[O-])ccc2Cl)CC1)c1cc([N+](=O)[O-])ccc1Cl	i	0.9	-1.0	40	117	-5	101
COc1ccc(-n2c(C)cc(/C=N/Nc3nnc(C)n3N)c2C)cc1	i	0.76	-2.2	39	85	7	57
COc1ccc(NC(=O)c2c[nH]n3c(=O)cc(C4CCN(C(=O)OC(C)(C)C)CC4)nc23)cc1Cl	i	1.1	·	·	·	-2	90
O=C(CCSCc1ccccc1Cl)N1CCN(c2cccc(Cl)c2)CC1	i	0.9	-3.4	28	102	-5	97
CCOc1ccc(N2C(=O)CC(NCc3ccc(S(N)(=O)=O)cc3)C2=O)cc1 (centres undefined)	i	0.98	·	·	·	·	102
Cn1sc(NC(=O)c2ccccc2Cl)nc1=O	i	0.93	-2.6	-17	131	3	87
COc1ccc2c(c1)C1NC(=S)NC(C)(O2)C1C(=O)Nc1ccccc1C (centres undefined)	i	1	-4.7	0	144	7	100
COc1ccc(CN(Cc2cccn2C)C(=O)c2cc3cc(OC)ccc3[nH]2)cc1	i	0.88	·	·	·	·	100
Cc1c(C(=O)NCc2ccccc2Cl)oc2c1C(=O)CCC2	i	0.97	-0.5	·	·	-9	71
COc1ccc(OC)c(Cc2nnc(CCC(=O)NC(C3CC3)C3CC3)o2)c1	i	0.99	·	·	·	-6	102
Cc1ccc(S(=O)(=O)NCC2CCC(C(=O)NCc3ccc4c(c3)OCO4)CC2)cc1 (centres undefined)	i	0.83	-2.7	10	190	-4	150
O=C(NCCCN1CCOCC1)c1ccc(CS(=O)(=O)c2cccc(C(F)(F)F)c2)o1	i	0.74	-1.9	·	·	-15	102
O=C(CCCCCNc1nc(=S)[nH]c2ccccc12)NCCc1c[nH]c2ccccc12	i	0.98	-1.0	23	96	12	137
CC(=O)OCC(=O)[C@@]1(O)CC[C@H]2[C@@H]3CCC4=CC(=O)C=C[C@]4(C)[C@@]3(Cl)[C@@H](Cl)C[C@@]21C	i	0.71	·	·	·	·	101
CCOc1ccccc1CNCCNCC(C)O (centres undefined)	i	1.1	·	·	·	-3	97
O=C(CN1C(=O)c2ccccc2C1=O)Nc1cc([N+](=O)[O-])ccc1O	i	0.92	·	·	·	-8	103
Cc1nn(Cc2ccccc2)c(C)c1C(=O)OCC(=O)c1cc(C)n(C2CC2)c1C	i	1.1	-1.9	3	108	-2	47
COCCNC(=O)/C(C#N)=C/c1ccc(N2CCOCC2)o1	?	·	-0.4	17	116	-17	108
Cc1ccc(S(=O)(=O)CCC(=O)OCC(=O)c2c(C)[nH]c3ccccc23)cc1	i	0.96	-1.6	-3	50	-7	161
CS(=O)(=O)Nc1cccc(C(=O)CC2(O)C(=O)Nc3ccc(Br)cc32)c1 (centres undefined)	i	1.1	-1.9	0	118	-8	72
Nc1cc(N)c(OCC(F)(F)F)cc1OCC(F)(F)F	i	1.1	-3.2	-19	104	4	94
C/C(=N\N)c1c(-c2ccccc2)c2cc(Br)ccc2[nH]c1=O	i	1	·	·	·	-5	100
COc1ccc(C2OC34CCCCC3C(C#N)(C#N)C2(C#N)C(=N)O4)cc1 (centres undefined)	?	·	1.8	-32	51	-4	103
Cn1c(=O)c2c(nc(NCc3ccco3)n2Cc2ccc(Cl)cc2Cl)n(C)c1=O	i	0.79	0.2	-82	45	-14	92

Four entries from above, as labelled records.
O=C(c1c(O)c2ccccc2oc1=O)C1CCCCC1
  HSV augment = i | HSV augment primary fold = 0.72 | GALR2 agonist = -1.6 | Insulin prom inh = 22 | Insulin prom inh cell count = 101 | PKD1 kinase inh = -9 | RGS16-Gao = 105
CCOC(=O)Cc1nn(CCc2ccccn2)c(=O)c2ccccc12
  HSV augment = i | HSV augment primary fold = 0.97 | GALR2 agonist = -0.4 | Insulin prom inh = 0 | Insulin prom inh cell count = 160 | PKD1 kinase inh = -16 | RGS16-Gao = 99
O=C(NC1CCCc2ccccc21)c1cccc(S(=O)(=O)N2CCOCC2)c1 (centres undefined)
  HSV augment = i | HSV augment primary fold = 0.91 | GALR2 agonist = · | Insulin prom inh = -47 | Insulin prom inh cell count = 158 | PKD1 kinase inh = -2 | RGS16-Gao = 96
Cc1ccc(O)c(C2=Nc3ccccc3N=C(c3cccs3)C2)c1
  HSV augment = i | HSV augment primary fold = 0.93 | GALR2 agonist = 0.5 | Insulin prom inh = · | Insulin prom inh cell count = · | PKD1 kinase inh = 3 | RGS16-Gao = 101
